# Source: PubChem
# YopH PTP inh: YopH tyrosine phosphatase inhibitors, primary screen, biochemical, fluorescence Ex485/Em525 | AID 898, 2007 | YopH tyrosine phosphatase [Yersinia enterocolitica] | actives 0.16% (n = 140,000) | inhibition, %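 (about 10 µM by stock and volumes)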;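 active = inhibition of 50% or more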;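 also: controls were vehicle for no effect and minimum signal wells for full effect; inactives centre near -20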
# Arbovirus anti: antivirals against arbovirus infection, primary screen, cell-based, full library, 10K replicate subset; arbovirus infection cell-based antiviral screen; inhibition, % at 10 µM; actives 0.37% (n = 200,000); AID 1251, 2008;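 active = inhibition from about 30%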;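 also: bluetongue infection of BSR cells; cell survival read as ATP light after 72 h; 0% = infected wells without compound and 100% = uninfected wells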
# Mtb betalactam: beta-lactam sensitization of Mtb H37Rv, H37Rv; M. tuberculosis H37Rv growth with meropenem, percent inhibition; hits of this screen are not shown here; inhibition, % at 25 µM; actives 0.27% (n = 330,000);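 active = about 74% or more and at least 40 points above the plate without the antibiotic, then above 30% in a dose series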;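 also: growth measured after seven days incubation then overnight dye step; 0% = bacteria only wells and 100% = bacteria with antibiotic; twin plates without the antibiotic show which effects depend on it; some results filed as inactive read as strong as hits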
# Mtb H37Rv: M. tuberculosis H37Rv growth inhibitors, H37Rv strain (AID 1626). M. tuberculosis H37Rv growth inhibition; higher % means a stronger effect. inhibition, % at 10 µM, or IC50 in µM where a hit was titrated. actives 0.95% (n = 220,000);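 active = confirmed in a dose series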;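 also: bacteria incubated seven days before Alamar blue readout; 0% = bacteria only wells and 100% = bacteria with antibiotic wells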
# RecA intein inh: Mtb RecA intein splicing inhibitors, primary screen, biochemical, fluorescence, HTS; Protein RecA (Mycobacterium tuberculosis (strain ATCC 25618 / H37Rv)), P9WHJ3; cell-free RecA intein splicing; inhibition, %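 (about 9 µM by stock and volumes)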; actives 0.75% (n = 290,000); in the data active = inhibition above about 30%;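 also: 0% = vehicle wells and 100% = reference inhibitor control wells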
# Target sequence (P9WHJ3 whole entry, looked up): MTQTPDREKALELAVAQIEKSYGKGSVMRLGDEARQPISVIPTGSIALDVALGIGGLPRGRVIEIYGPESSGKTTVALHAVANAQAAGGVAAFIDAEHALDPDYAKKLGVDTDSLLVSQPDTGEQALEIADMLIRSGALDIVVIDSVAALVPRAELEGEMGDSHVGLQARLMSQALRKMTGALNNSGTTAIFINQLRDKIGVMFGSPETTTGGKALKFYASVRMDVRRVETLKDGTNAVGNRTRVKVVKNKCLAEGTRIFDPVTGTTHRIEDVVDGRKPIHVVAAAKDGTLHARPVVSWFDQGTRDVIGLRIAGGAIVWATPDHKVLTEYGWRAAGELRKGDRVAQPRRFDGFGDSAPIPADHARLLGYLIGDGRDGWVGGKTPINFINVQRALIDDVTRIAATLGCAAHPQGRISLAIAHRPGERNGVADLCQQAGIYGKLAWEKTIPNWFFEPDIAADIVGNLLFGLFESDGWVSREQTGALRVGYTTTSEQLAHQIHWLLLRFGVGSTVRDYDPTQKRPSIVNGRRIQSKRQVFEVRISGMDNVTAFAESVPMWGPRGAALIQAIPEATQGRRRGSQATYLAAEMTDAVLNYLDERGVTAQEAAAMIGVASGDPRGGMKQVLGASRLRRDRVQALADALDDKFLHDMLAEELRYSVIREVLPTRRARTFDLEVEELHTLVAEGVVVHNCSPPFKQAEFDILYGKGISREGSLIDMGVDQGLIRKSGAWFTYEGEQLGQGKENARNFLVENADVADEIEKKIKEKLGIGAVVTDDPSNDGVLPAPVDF
# Arbovirus anti repeat: also measured in Arbovirus anti; calls as there; inhibition, %; measured here: 10K subset replicate screen; many hits read low in the repeat;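 first of two repeat runs on a subset; 0% = infected and 100% = uninfected wells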
# An asterisk follows results filed as active; i = inactive; nt = not tested or not shown. These rows are one share of the data. The share of hits here may be higher or lower than overall.
SMILES,YopH PTP inh,Arbovirus anti,Mtb betalactam,Mtb H37Rv,RecA intein inh,others
Cc1cccc(OCCNC(=O)c2ncn[nH]2)c1,-85,-4,-2,1%,-0.5,Arbovirus anti repeat=-4
COCCn1c(SCC(=O)NC(C)c2ccc(F)cc2)nc2ccccc21 (stereo unspecified),nt,nt,-5,nt,-2.6,
Cc1nn(Cc2ccccc2Cl)c2sc(C(=O)Nc3ccccc3N3CCOCC3)cc12,-26,8,-1,9%,1.7,
Oc1ccc(Cl)cc1C1=NNC(c2cc(Br)cc3c2OCOC3)C1 (stereo unspecified),nt,0,1,2%,1.4,
CC(C)CNC(=O)c1ccc2c(c1)C(=O)N(Cc1ccco1)C2=O,nt,nt,2,nt,-3.5,
Cc1cccc(NC(=S)NC2CC3CCC(C2)N3Cc2ccco2)c1C (stereo unspecified),-5,8,8,0%,-1.3,
CC(=O)Nc1ccc(S(=O)(=O)NCCC(=O)Nc2ccc(C)c(F)c2)cc1,nt,nt,0,nt,1.0,
COc1ccc(C)cc1NC(=O)c1[nH]c(C)c(C(C)=O)c1C,-40,1,-2,3%,-0.3,
COCCNC(=O)Cn1c(=O)n(CCCC(=O)NCc2ccc3c(c2)OCO3)c(=O)c2sccc21,nt,nt,-5,nt,-0.9,
Cc1cc(C(=O)OCc2nc3ccccc3s2)c(C)o1,-23,-3,-1,nt,8.9,
Clc1cccc(-c2nc(NCCCN3CCOCC3)c3ccccc3n2)c1,nt,-15,19,15%,3.8,
O=C(N1CCOCC1)N1CCN(c2ccccc2)CC1,-32,1,-10,-3%,-1.4,
CCC(=O)N1CCN(c2ccc(NC(=O)COc3ccccc3Cl)cc2)CC1,-20,-4,96,7%,1.9,
Cc1cc2oc(=O)cc(CN3CCN(Cc4ccccc4)CC3)c2cc1Cl,-26,0,-8,14%,0.8,
COc1cc(OC)cc(C2(C#N)CCN(C)CC2)c1,nt,nt,0,0%,-0.3,
COc1ccc(S(=O)(=O)Nc2cccc(N(C)S(C)(=O)=O)c2)cc1Br,-31,11,1,-4%,-4.8,
CCOCCn1c(CN2CCC(Cc3ccccc3)CC2)nc2c1c(=O)n(C)c(=O)n2C,-6,nt,7,-3%,0.5,
COc1cc(NC(=O)c2ccccc2F)c(OC)cc1NC(=O)CN1CCCCC1,nt,nt,72,nt,1.1,
Cc1ccccc1CSCC(=O)Nc1c(C)n(C)n(-c2ccccc2)c1=O,-11,-4,1,4%,-1.0,
CCCc1nc2ccccc2n1CCOC,-20,8,-6,1%,1.2,
N/C(=N\OC(=O)CCc1ccccc1)c1ccc(Cl)cc1,-27,4,5,5%,2.4,
C=CC1=C2C=C(C3CC3)N(CC3CC3)C=C2C(=O)C(C)(OC(=O)c2ccco2)C1=O (stereo unspecified),nt,nt,1,4%,-1.2,
O=C(CN1C(=O)NC2(CCCCC2)C1=O)Oc1ccc2c(C(F)(F)F)cc(=O)oc2c1,nt,nt,-6,nt,i,
Cc1ncc([N+](=O)[O-])n1CC(=O)N/N=C/c1ccccc1F,nt,1,0,3%,2.9,
CC1CN(c2nc3ccccc3cc2-c2ccccc2)CC(C)O1 (stereo unspecified),nt,0,-2,2%,15,
SMILES,YopH PTP inh,Arbovirus anti,Mtb betalactam,Mtb H37Rv,RecA intein inh,others
C/C=C\C=C/C(=O)Nc1cccc(C2=NOC3(C2)C[C@@H](C(N)=O)N(C(=O)CCCCC)C3)c1 (stereo partly specified),nt,nt,-4,-3%,4.0,
O=C(Cn1nnc2ccccc21)OCC(=O)c1ccc(F)cc1,nt,nt,-2,-4%,-2.4,
Cc1cc(C)nc(N2CCC(C(=O)NCC3CCCCC3)CC2)n1,-27,2,nt,-4%,-3.0,
COc1ccc(CN2C(=NC(=O)c3ccccc3)SC3CS(=O)(=O)CC32)cc1 (stereo unspecified),nt,nt,0,nt,-1.8,
CCn1c(Cc2ccccc2)nnc1SCC(=O)Nc1nc2ccccc2s1,3,-1,1,-4%,0.6,
COc1cccc(N2C(=O)CN(Cc3ccccc3)C2=S)c1,nt,nt,-5,nt,0.7,
Cc1ccc(C)c(NC2=C(Cl)C(=O)OC2OC(=O)c2ccco2)c1 (stereo unspecified),-22,-2,2,-5%,46*,
CCCc1noc(-c2ccc(-c3ccccc3)cc2)n1,-47,7,-7,-2%,6.2,
COc1ccc(-n2c(C)cc(C(=O)CSc3nn4c(=O)c(C(C)(C)C)nnc4s3)c2C)cc1,-7,21,1,5%,nt,
C#CCOc1ccc(/C=N/NC(=O)c2cccnc2)cc1OCC,nt,11,2,3%,-0.9,
CCOC(=O)c1c(S(=O)(=O)NCC(=O)Nc2ccccc2OC)c(C)n(C)c1C,nt,nt,4,nt,0.1,
COc1ccc(C)cc1-n1c(C)cc(C=O)c1C,nt,3,6,-5%,1.3,
Cc1nc(SCCC(=O)O)c2ccccc2n1,-51,0,-6,-9%,5.1,
Cc1ccc(O)c(NC(=O)c2ccc3c(c2)C(=O)N(Cc2cccnc2)C3=O)c1,nt,nt,-7,nt,-4.1,
O=C(CO/N=C/c1ccccc1OC(F)F)NC1CCCCC1,-14,-4,3,10%,2.5,
CC(Cc1cccs1)NC(=O)c1cccs1 (stereo unspecified),nt,5,3,1%,-1.7,
Cc1ccc(C)c(NC(=O)C2C(c3ccccc3)C2(Cl)Cl)c1 (stereo unspecified),-19,-1,99,19%,1.0,
CCOc1ccccc1N1CC(C(=O)Nc2ccc(S(=O)(=O)N3CCCCC3)cc2)CC1=O (stereo unspecified),nt,nt,-5,nt,3.2,
CCC(=O)c1c[nH]c(C(=O)NCCCN2CCOCC2)c1,-4,6,-4,16%,-12,
COc1cccc(N2[C@@H](CC(=O)O)c3ccccc3S2(=O)=O)c1,nt,nt,3,0%,-2.6,
Cc1cc(C(=O)NC2CCC(C)CC2)c(C)o1 (stereo unspecified),nt,nt,2,nt,1.4,
Cc1ccc2cc(CN(CCN3CCOCC3)Cc3nnnn3Cc3ccco3)c(=O)[nH]c2c1C,-11,-1,nt,5%,-2.6,
CCOC(=O)N1CCN(S(=O)(=O)c2ccc(C(=O)N(CCCN(C)C)c3nc4ccc(Cl)cc4s3)cc2)CC1,nt,nt,-10,nt,0.4,
Cc1ccc(NC(=O)CN2C(=O)N/C(=C/c3ccc(C)s3)C2=O)cc1,-21,0,6,-6%,-9.8,
Cc1cccn2c(=O)c3cc(C(=O)N4CCCC(C)C4)sc3nc12 (stereo unspecified),nt,nt,-3,nt,-11,
SMILES,YopH PTP inh,Arbovirus anti,Mtb betalactam,Mtb H37Rv,RecA intein inh,others
O=C1CSC(c2ccccc2[N+](=O)[O-])N1c1cccc(F)c1 (stereo unspecified),nt,-1,-7,-4%,-1.5,
C1CC1Cc1noc(CN2CCN(C3C4CC5CC(C4)CC3C5)CC2)n1 (stereo unspecified),nt,-7,-11,-2%,1.5,
COc1ccccc1C(=O)NNC(=O)CCCN1C(=O)/C(=C/c2cccs2)SC1=S,-16,13,4,9%,-0.7,
Cc1ccc2cc(NC(=O)Cc3ccccc3)ccc2n1,nt,nt,-3,-6%,0.4,
NC(=O)c1sc2nnc(-c3ccccc3)c(-c3ccccc3)c2c1N,nt,nt,4,0%,0.1,
NC(=O)C1CCN(c2nc(-c3ccc(Br)cc3)cs2)CC1,-22,1,-2,-1%,1.2,
Cc1ccc(C)c(NC(=O)CN(C)C(=O)CN2C(=O)C3CCCCC3C2=O)c1 (stereo unspecified),nt,nt,7,nt,-2.3,
COc1ccc(CCC(=O)NC(C)C)cc1,-35,9,7,3%,-0.5,
COc1ccc(NC(=O)Cn2c3ccccc3c3nc4n(c(=O)c32)CCS4)cc1OC,nt,nt,2,nt,2.7,
CC(=O)Nc1cccc(C(=O)NC(C)c2ccc(S(N)(=O)=O)cc2)c1 (stereo unspecified),-24,5,-6,-10%,0.7,
O=C(NCCc1ccccc1)c1ccccc1NC(=O)C1CCCCC1C(=O)O (stereo unspecified),nt,4,-4,-3%,-5.9,
Cc1nc2ccccn2c1C(=O)N/N=C/c1ccccc1,nt,nt,-3,nt,-3.6,
CCn1cc(CNC(=O)C2C3CCC(C3)C2C(=O)O)cn1 (stereo unspecified),-41,2,-4,nt,-1.3,
Cc1ccc(C)c(-n2c(N)c(C(N)=O)sc2=S)c1,-38,12,-1,-5%,-1.3,
O=C(O)c1cc(N2C(=O)C3C4C=CC(C4)C3C2=O)ccc1N1CCOCC1 (stereo unspecified),nt,0,0,0%,-2.7,
CC(C)(C)n1nnnc1C(c1cccs1)N(Cc1cccnc1)Cc1ccccc1Cl (stereo unspecified),-28,-36,-4,3%,35*,
O=C(CCN1CCN(C/C=C/c2ccccc2)CC1)Nc1ccccc1Cl,nt,nt,-2,nt,2.6,
O=C(O)COCC(=O)Nc1ccc2c(c1)oc1ccccc12,nt,nt,3,nt,-0.7,
COCCn1cnc2c1c(=O)n(CC(=O)NC(=O)NC(C)(C)C)c(=O)n2Cc1ccccc1,nt,nt,6,nt,1.1,
CCS(=O)(=O)N1Cc2ccccc2CC1C(=O)N(C)CC(=O)Nc1cccc(F)c1 (stereo unspecified),nt,nt,0,nt,-3.7,
COc1ccc(CCNCC(=O)N2C(C)CCCC2C)cc1OC (stereo unspecified),nt,-1,-5,-6%,0.3,
CC(=O)Nc1ccc(Nc2cc(C)c3ccccc3n2)cc1,nt,nt,2,nt,-1.3,
CCCC(=O)NCCc1cc2c(C)ccc(C)c2[nH]c1=O,-11,8,-5,3%,-5.4,Arbovirus anti repeat=-3
COC(=O)c1ccc(C(=O)NC(=S)Nc2nc3c(s2)CCCC3)cc1,-26,4,44,76%,-0.5,
O=[N+]([O-])c1cccnc1Oc1ccc(OCc2ccccc2)cc1,nt,nt,3,nt,-0.2,

# 5 entries out of the list, arranged by number of heavy atoms, lowest first.
SMILES,YopH PTP inh,Arbovirus anti,Mtb betalactam,Mtb H37Rv,RecA intein inh,others
O=C(Cn1nnc2ccccc21)OCC(=O)c1ccc(F)cc1,nt,nt,-2,-4%,-2.4,
COc1ccc(S(=O)(=O)Nc2cccc(N(C)S(C)(=O)=O)c2)cc1Br,-31,11,1,-4%,-4.8,
Cc1ccc(O)c(NC(=O)c2ccc3c(c2)C(=O)N(Cc2cccnc2)C3=O)c1,nt,nt,-7,nt,-4.1,
COc1ccccc1C(=O)NNC(=O)CCCN1C(=O)/C(=C/c2cccs2)SC1=S,-16,13,4,9%,-0.7,
COCCn1cnc2c1c(=O)n(CC(=O)NC(=O)NC(C)(C)C)c(=O)n2Cc1ccccc1,nt,nt,6,nt,1.1,

# Back to the main list with the two entries that preceded the break.
SMILES,YopH PTP inh,Arbovirus anti,Mtb betalactam,Mtb H37Rv,RecA intein inh,others
COC(=O)c1ccc(C(=O)NC(=S)Nc2nc3c(s2)CCCC3)cc1,-26,4,44,76%,-0.5,
O=[N+]([O-])c1cccnc1Oc1ccc(OCc2ccccc2)cc1,nt,nt,3,nt,-0.2,
CC1(c2ccccc2)NC(=O)N(CC(=O)NCCC2=CCCCC2)C1=O (stereo unspecified),-18,5,-1,-9%,2.4,
COC(=O)C(C)Sc1ccc2nnc(-c3cccc(F)c3)n2n1 (stereo unspecified),-27,6,3,6%,0.6,Arbovirus anti repeat=-1
O=C(Nc1ccc(F)cc1)c1ccc(=O)[nH]n1,nt,nt,3,nt,2.2,
c1ccc(-c2cnn3nnnc3n2)cc1,-15,4,-12,-7%,0.6,Arbovirus anti repeat=-3
CC(=O)Nc1ccc(NC(=O)CSc2nc(=O)n3cccc(C)c3n2)cc1,nt,nt,6,nt,-1.9,
C/C(CC(=O)Nc1cccc(C(F)(F)F)c1)=N\NC(=O)c1ccncc1,nt,nt,99,nt,21,
CCOc1ccc(N=C(/C(C(=O)C(=O)N2CCOCC2)=C(\O)c2ccccc2)c2ccccc2)cc1,-6,-2,-12,39µM*,1.5,
COc1cccc(OC)c1OCCN1CCN(C(=O)c2ccco2)CC1,-27,8,-11,-6%,0.2,
OCCCc1nc2ccccc2n1CCc1ccccc1,-132,1,-13,8%,-0.7,
OCCCc1nc2n(n1)C(c1cccs1)C=C(c1ccccc1)N2 (stereo unspecified),-47,0,-2,7%,i,Arbovirus anti repeat=-9
CC(NC(=O)c1ccccc1Cl)NC(=O)c1ccccc1Cl,nt,nt,-5,nt,-1.3,
CC(Oc1ccccc1F)C(=O)Nc1ccc2ccccc2c1 (stereo unspecified),-14,17,66,51%,-1.1,
CCOC(=O)c1c(C)oc2c1c(C=NCC1CCCO1)c(O)c1ccccc12 (stereo unspecified),44,-9,nt,nt,21,
CCOC(=O)Cn1c(=N)n(CCOc2ccc(Br)cc2)c2ccccc21,nt,nt,0,-8%,2.9,
CCCCOC(=O)C(C)Oc1ccc(=O)n(-c2ccccc2)n1 (stereo unspecified),-39,-3,6,-1%,2.0,Arbovirus anti repeat=1
